Cruzain Triton – cruzain (T. cruzi) inhibition with detergent; 0.43% of 200,000 active; purified cruzain, Z-FR-AMC fluorescence, 0.01% Triton; Potency, µM, without a hit: max response, negative = inhibition, actives largely listed as inhibitors; P25779; active = well fitted curve in the direction sought with a large enough effect; inconclusive = small, poorly fitted or top-dose-only effect, or another doubt; inactive = no such curve, though single readings can be large; an effect the other way counts as inactive or inconclusive;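 note: plate controls were neutral wells for no effect and buffer without enzyme for full effect; nearly all actives have a fitted effect of over 40% in size; top concentration of the series not given in the record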
Target sequence (P25779 123-467 limits assumed): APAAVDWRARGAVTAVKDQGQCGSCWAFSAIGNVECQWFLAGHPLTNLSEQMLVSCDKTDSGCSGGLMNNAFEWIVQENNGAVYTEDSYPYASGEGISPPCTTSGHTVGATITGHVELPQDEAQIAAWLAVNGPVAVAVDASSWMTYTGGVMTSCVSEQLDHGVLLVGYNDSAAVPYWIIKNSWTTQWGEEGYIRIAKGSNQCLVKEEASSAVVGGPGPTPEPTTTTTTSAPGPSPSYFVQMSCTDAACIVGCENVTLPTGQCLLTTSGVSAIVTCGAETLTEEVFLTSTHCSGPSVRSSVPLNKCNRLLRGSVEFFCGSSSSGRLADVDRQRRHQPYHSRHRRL
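Detergent-containing arm of a paired screen for aggregation-based inhibition: 0.01% Triton X-100 present. Cruzain at 1.5 nM cleaved 2 uM Z-FR-AMC at pH 5.5 with 5 mM DTT; AMC fluorescence gain over 60 s measured activity.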
MARV entry inh – Marburg virus entry inhibition; Marburg virus pseudotyped entry inhibition, cell reporter; control for the full effect not named in the record; about a third of the inactives were read at about 46 µM; Potency, µM (doses to about 37.8 µM), for inactives: at the highest dose activity change, negative = inhibition, usual class: inhibitors; 1.8% of 300,000 active; active = well fitted inhibition curve with a large enough effect; inconclusive = small, poorly fitted or top-dose-only effect, or effect the other way; inactive = flat fitted curve, though single readings scatter; tested in HEK293 cells; about a fifth of its hits are not listed in these tables; note: % is set by controls: 0 for no effect and ±100 for the full control effect; luciferase read-out
Lassa entry inh – Lassa virus entry inhibition; Lassa virus pseudotype entry inhibition, cell reporter; control for the full effect not named in the record; Potency, µM (titrated, usually from 37.9 µM), inactives show top-dose activity change, negative = inhibition, actives largely listed as inhibitors; 1.2% of 300,000 active; AID 540256; active means well fitted inhibition curve with a large enough effect; inconclusive means small, poorly fitted or top-dose-only effect, or effect the other way; inactive means flat fitted curve, though single readings scatter; tested in HEK293 cells; note: % is set by controls: 0 for no effect and ±100 for the full control effect; nearly all actives have a fitted effect of over 50% in size; luciferase read-out
StopGo reporter – lowers the luciferase signal of an FMDV 2A StopGo reporter; Potency, µM (highest dose often 57.9 µM), for inactives: at the top dose signal change, negative = less light; human cells with a luciferase reporter of 2A StopGo recoding; control for the full effect not named in the record; AID 1159524; 1.2% of 410,000 active; active = well fitted falling curve with a large enough effect; inconclusive = small, poorly fitted or top-dose-only effect; inactive = no such curve, though single readings can be large or run the other way; tested in HEK293T cells; note: % is set by controls: 0 for no effect and ±100 for the full control effect; nearly all actives have a fitted effect of over 45% in size; luciferase light after 4 h
SARS PLpro yeast – inhibitors of SARS-CoV papain-like protease in yeast | 0.19% of 330,000 active | S. cerevisiae expressing SARS-CoV PLpro, growth rescue; control for the full effect not named in the record | Potency, µM (highest dose often 32.9 µM), without a hit: top-dose activity, positive = growth rescue | AID 485353; note: 0% is about no effect; nearly all actives have a fitted effect of over 55% in size; growth read by luminescence after 48 h
NS1 function inh – blocks influenza NS1 protein function | AID 2326 | S. cerevisiae slowed by influenza A NS1, growth recovery by OD600 | Potency, µM (highest dose often 46.1 µM), inactives show at the highest dose activity, positive = more growth | 0.4% of 270,000 active; note: actives are rising curves; nearly all actives have a fitted effect of over 50% in size
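Recovery from NS1-induced slow growth read by OD600 in budding yeast switched to galactose assay medium (pH 6.0, -URA) at 1:100 dilution. Compound 23 nl per well; the matching strain lacking NS1 serves as control.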
Cruzain noTriton – inhibitors of Trypanosoma cruzi cruzain without detergent | P25779 | purified cruzain, Z-FR-AMC fluorescence, no detergent | Potency, µM, inactives show max response, negative = inhibition, most hits filed as inhibitors | 2.3% of 200,000 active | AID 1476; active = well fitted curve in the direction sought with a large enough effect; inconclusive = small, poorly fitted or top-dose-only effect, or another doubt; inactive = no such curve, though single readings can be large; an effect the other way counts as inactive or inconclusive;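 note: plate controls were enzyme without inhibitor for no effect and buffer without enzyme for full effect; nearly all actives have a fitted effect of over 40% in size; top concentration of the series not given in the record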
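Purified cruzain at 1.5 nM, pre-incubated 15 min with compound at room temperature in 100 mM sodium acetate pH 5.5, 5 mM DTT, 0.00005% Triton X-100. Reaction started with 2 uM Z-FR-AMC; AMC fluorescence increase over 60 s gives rate.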
RE007 growth inh – less growth of the S. pombe RE007 Vpr strain. Potency, µM (doses to about 92.2 µM), for the others: top-dose activity change, negative = less growth. 0.21% of 360,000 active. S. pombe RE007 Vpr strain, BacTiter-Glo ATP luminescence, 24 h; control for the full effect not named in the record; active = well fitted falling curve with a large enough effect; inconclusive = small, poorly fitted or top-dose-only effect; inactive = no such curve, though single readings can be large or run the other way;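 note: % is set by controls: 0 for no effect and ±100 for the full control effect; nearly all actives have a fitted effect of over 50% in size; the assay follows cell death caused by Vpr and the record does not say whether a fall means rescue or toxicity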
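Fission yeast strain RE007, carrying one chromosomally integrated HIV-1 vpr copy, was seeded at OD 0.01 in PMG+AL medium with 23 nL pinned compound. After 24 h at 30 °C and 99% humidity, viability was read by BacTiter-Glo luminescence.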
* marks the source's active call; other numbers are inactive results; ? = inconclusive; / = no result given; & = joins results of further samples; [ ] = another dose, or the depositor's remark. Unless noted, calls come from the whole dose curve; as a rule, active means well fitted rising curve with a large enough effect; inconclusive means small, poorly fitted or top-dose-only effect; inactive means no such curve, though single readings can be large or run the other way. Potency is the fitted concentration of half-maximal effect. No enrichment for hits; about 4.5% have a hit in one of these screens.

SMILES	Cruzain Triton	MARV entry inh	Lassa entry inh	StopGo reporter	SARS PLpro yeast	NS1 function inh	Cruzain noTriton	RE007 growth inh
Cc1ccc(N/N=C/c2c(O)n(-c3ccccc3)c(=O)[nH]c2=O)cc1	/	?	?	52.7%[activator]	-8.5%	/	/	88.3%
C/C(=N\NC(N)=O)c1ccc(Cl)cc1	6.3%	6.9%	0.1%	-0.1%	7.6%	9.9%	5.1%	-4.9%
O=C(c1ccc(Cl)cc1)C1CCCN(Cc2cccc3cccnc23)C1 (configuration not stated)	/	?	?	-16.2%	-0.5%	2.2%	/	-25.2%
O=C(c1ccc(Cl)cc1)n1nc(-c2ccccc2)nc1NCc1ccco1	-6.9%	?	6.1%[46.1 µM]	14.3%	/	/	3.5%	/
COc1ccc(CNC(=O)C2CCN(S(=O)(=O)c3cccc(-c4noc(C)n4)c3)CC2)cc1	2.8%	/	-0.3%[46.1 µM]	-21.4%	/	/	-0.2%	/
Cc1ccc(CC2SC(N=C(N)N)=NC2=O)cc1 (configuration not stated)	/	0.0%	-3.4%	-1.9%	2.1%	17.5%	/	0.9%
COc1ccnc(Oc2ccc(F)cc2)c1C(=O)N/C=N/OCc1ccc(Cl)cc1Cl	-5.5%	13µM*	0.4%	/	-13.7%	8.6%	?	-1.7%
O=C(COc1ccccc1[N+](=O)[O-])NCC1COc2ccccc2O1 (configuration not stated)	/	-4.4%	-8.3%	-0.8%	-6.1%	/	/	14.3%
CCOC(=O)CSc1nc2sc3c(c2c(=O)n1-c1ccccc1)CCN(C(C)C)C3	/	4.8%[46.1 µM]	15.4%[46.1 µM]	-26.7%	0.1%	-2.5%	/	-23.8%
OC(C#CCN1CCOCC1)c1cccs1 (configuration not stated)	4.6%	2.8%	3.6%	6.5%	8.5%	5.3%	7.6%	16.2%
CC(C)(C)C(=O)NC(=S)Nc1cc(C(F)(F)F)ccc1N1CCOCC1	-12.3%	-18.8%	?	-12.0%	21.9%	4.4%	-0.8%	-12.0%
COc1cc(C(=O)Nc2cc(-c3ccccc3)[nH]n2)cc(OC)c1OC	-4.8%	?	?	-29.1%	-2.1%	-3.2%	-2.3%	9.5%
COc1ccccc1OCCC(=O)OCC(=O)NCc1ccc(Cl)cc1	/	10.8%[46.1 µM]	2.4%	-6.1%	-0.3%	/	/	6.4%
N=C1C(c2nc(-c3ccc(F)cc3)cs2)=C(O)CN1CCCN1CCOCC1	-6.1%	-26.0%	-12.3%	-20.5%	-3.4%	-2.2%	-0.3%	0.0%
CCCn1c(SCC(=O)c2cc(C)n(-c3ccc4c(c3)OCO4)c2C)n[nH]c1=O	-5.7%	?	?	?	9.2%	7.7%	?	-7.5%
Cc1ccc(S(=O)(=O)c2cn(CC(=O)Nc3ccc(F)cc3)c3cc4c(cc3c2=O)OCO4)cc1	-1.9%	19.5%[46.1 µM]	5.8%[46.1 µM]	-7.3%	/	/	-16.1%	/
CCOC(=O)Cn1nnnc1CN(Cc1ccc(OC)cc1)Cc1cc2cc(C)ccc2[nH]c1=O	-8.5%	-9.8%	?	/	12.1%	-33.3%	?	13.2%
Cn1c(CCNC(=O)c2ccccc2F)nnc1SCC(=O)Nc1nncs1	/	6.3%[46.1 µM]	/	-5.8%	-1.8%	-3.6%	/	12.1%
C=CCn1c2ccccc2c(=O)c2cc(C#CC3(O)CCCCC3)ccc21	/	/	/	-15.8%	18.9%	-5.7%	/	0.0%
COc1ccc(Cn2c(=O)[nH]c3cc(C(=O)N4CCN(c5cccc(OC)c5)CC4)ccc3c2=O)cc1	-1.7%	-18.9%[46.1 µM]	4.7%[46.1 µM]	?	/	/	-5.2%	/
O=C(CCCCCCCC(=O)NCC1CCCO1)NCC1CCCO1 (configuration not stated)	-2.9%	21.0%	1.4%	12.1%	8.6%	3.5%	2.0%	7.2%
COc1cc(C)ccc1OCCOCCN(C)Cc1ccccc1	-1.6%	?	-0.8%	-11.8%	-21.3%	-8.3%	-4.4%	/
CCCOc1cccc(C(=O)Nc2cc(NC(=O)c3ccco3)ccc2OC)c1	-6.6%	?	-27.2%	?	-12.3%	-42.5%	?	-18.5%
COc1ccc(CN2CCNC(=O)C2CC(=O)NC2CCCCCC2)c(C)c1C (configuration not stated)	/	-11.6%	-10.8%	-2.4%	0.7%	7.7%	/	8.3%
COCCNC(=S)N(C)C1(c2ccccc2Cl)CCCCC1=O (configuration not stated)	/	12.8%[46.1 µM]	27.7%[46.1 µM]	-4.8%	0.1%	/	/	-8.8%

Shown bar-delimited: part of the list above.
SMILES | Cruzain Triton | MARV entry inh | Lassa entry inh | StopGo reporter | SARS PLpro yeast | NS1 function inh | Cruzain noTriton | RE007 growth inh
O=C(c1ccc(Cl)cc1)n1nc(-c2ccccc2)nc1NCc1ccco1 | -6.9% | ? | 6.1%[46.1 µM] | 14.3% | / | / | 3.5% | /
C=CCn1c2ccccc2c(=O)c2cc(C#CC3(O)CCCCC3)ccc21 | / | / | / | -15.8% | 18.9% | -5.7% | / | 0.0%
CCCOc1cccc(C(=O)Nc2cc(NC(=O)c3ccco3)ccc2OC)c1 | -6.6% | ? | -27.2% | ? | -12.3% | -42.5% | ? | -18.5%
Cc1ccc(CC2SC(N=C(N)N)=NC2=O)cc1 (configuration not stated) | / | 0.0% | -3.4% | -1.9% | 2.1% | 17.5% | / | 0.9%

Following part:
SMILES	Cruzain Triton	MARV entry inh	Lassa entry inh	StopGo reporter	SARS PLpro yeast	NS1 function inh	Cruzain noTriton	RE007 growth inh
Cc1noc(C)c1CNCc1ccccc1	/	/	/	-1.8%	0.7%	-0.6%	/	7.2%
COc1ccc(C(=O)Oc2cc(C)c(CN3CCOCC3)cc2C)cc1OC	/	?	0.6%	?	-0.1%	-17.0%	/	3.6%
COc1ccc(-c2noc(-c3cccc(Cl)c3)n2)cc1OC	0.9%	?	17.4%	31.7%[activator]	18.8%	-8.3%	?	-3.3%
CC(C)(C)OC(=O)N1CCC(CC2CC(c3cccc(Br)c3)=NO2)(C(=O)O)CC1 (configuration not stated)	/	/	/	-11.3%	3.5%	-38.5%	/	-7.7%
CCOC(=O)c1cccc(NC(=O)C2Cc3ccccc3N2C(=O)c2ccccc2)c1 (configuration not stated)	-0.7%	/	11.3%[46.1 µM]	-0.7%	/	/	-13.7%	/
C=C(C)CSc1nc2sc3c(c2c(=O)n1C1CCCCC1)CCN(C)C3	/	?	4.2%[46.1 µM]	?	0.1%	3.2%	/	0.5%
CCCC(=O)Oc1ccc2c(C)cc(=O)oc2c1	-3.2%	?	0.0%	-13.4%	-15.2%	-1.0%	-2.2%	-3.8%
O=C(Nc1ccccc1)c1oc2ccccc2c1NC(=O)C1CC1	/	1.9%	6.5%	-22.9%	2.2%	0.8%	/	-5.1%
Cc1ccccc1CN1C(=O)c2ccccc2S(=O)c2ccc(C(=O)NCc3ccco3)cc21 (configuration not stated)	0.2%	2.5%[46.1 µM]	-18.0%[46.1 µM]	-2.4%	/	/	-14.2%	/
CCOC(=O)c1sc(NC(=O)c2sc(C)nc2C)nc1C	/	?	?	31.4%[activator]	-1.1%	-8.8%	/	-4.1%
O=C(CCCCCCCCC(=O)N/N=C/c1ccco1)N/N=C/c1ccco1	-6.6%	13.3%[46.1 µM]	-6.5%	-13.9%	?	-4.2%	-29.9%	-18.2%
CCN(CC)P(=O)(Oc1ccccc1)Oc1ccccc1	/	/	/	-17.9%	-0.4%	5.0%	/	7.2%
Cc1nnc(NCc2n[nH]c(=O)c3ccccc23)c2ccccc12	-0.2%	?	-12.7%	-18.8%	-3.6%	15.3%[9.22 µM]	-5.8%	-12.4%
CCN(Cc1nc2ccccc2c(=O)[nH]1)Cc1nc2cc(OC)c(OC)cc2c(=O)[nH]1	-1.4%	0.0%&2.8%	2.8%	-5.4%	7.5%	-16.5%	1.6%	4.7%
CCOc1ccc(/C=C/C(=O)Nc2ccc(N3CCOCC3)cc2)cc1	5.2%	4.1%	-7.5%	-23.4%	28.3%	9.6%	?	-13.2%
COc1cccc(CNS(=O)(=O)c2c(C)[nH]c(C)c2C(=O)N2CCCCC2)c1	/	24.6%[46.1 µM]	-1.0%[46.1 µM]	11.6%	-1.3%	-12.9%	/	-7.2%
CCN(CC)CC(=O)Nc1sc(C)cc1C(=O)c1ccccc1	/	?	-10.8%	-27.0%	7.6%	-3.9%	/	-9.0%
CCN(C(=O)c1cc2cccc(OC)c2oc1=O)c1ccccc1	2.4%	0.6%	4.0%	-16.4%	4.3%	6.4%	3.1%	-1.1%
O=C(O)CCCCNS(=O)(=O)/C=C/c1ccccc1	/	-5.7%[46.1 µM]	-6.7%[46.1 µM]	29.2%	-6.6%	/	/	0.5%
Cc1ccccc1OCCCCc1c(C)n[nH]c1C	-5.1%	?	-31.4%[14.3 µM]	-20.2%	?	-100.8%	2.3%	0.3%
Cc1ccc(C2N(C)C(=O)c3ccccc3N2C)cc1 (configuration not stated)	/	-19.5%	?	-26.5%	-2.8%	-16.1%	/	25.7%
COCc1cc(C)nc(SCC(=O)Oc2ccccc2)c1C#N	/	?	-13.0%	-13.3%	1.8%	/	/	13.4%
Cc1oc2cc3oc(=O)cc(C)c3cc2c1C	/	/	/	59.8%[activator]	-1.9%	-2.0%	/	3.6%
Cc1csc2c(N3CCCCC3)ncnc12	/	/	/	28.1%	-2.7%	-6.6%	/	-17.0%
CC(C)OC(=O)c1nnn(-c2nonc2N)c1CSc1ccccn1	-2.1%	-10.6%	17.0%	-5.5%	10.4%	-69.9%	2.2%	4.2%
CC(C)N(Cc1ccccc1)C(=O)COC(=O)/C=C/c1cnc2ccccc2n1	/	-18.2%[46.1 µM]	9.8%	?	0.6%	2.6%	/	4.9%
COc1ccc(Cn2c(C)nnc2-c2cnn(C)c2N)cc1	/	-20.9%[46.1 µM]	8.0%[46.1 µM]	-10.2%	2.1%	/	/	9.8%
Cc1cccc(OCC(O)CN2CCNCC2)c1 (configuration not stated)	/	-21.8%[46.1 µM]	?	16.6%	3.4%	20.8%	/	7.3%

Compound activity as filed in PubChem BioAssay.
